Source: PubChem BioAssay
Ba CapD inh = inhibitors of Bacillus anthracis CapD enzyme; z-score (test concentration not listed); hit rate 0.23% among 140,000; purified CapD enzyme, fluorescence intensity read-out; hits give low values; some hits fall short of the stated cut;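 active means z-score under -4 in either of two replicates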;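 further: stock transfer was 100 nL into about 40 µL; score is relative to mean and spread of the plate; one replicate is shown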
AID504770 = E. coli YBA685 growth inhibition, screen for V. cholerae RctB inhibitors. E. coli YBA685 rctB-dependent plasmid, OD600 growth, 3 h; hits give low values. z-score (no concentration beside the values). hit rate 0.27% among 130,000;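 active means z-score under -2 on both plates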;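 further: wells of about 30 µL received 100 nL stock; score is relative to mean and SD of the test wells; the first replicate is given; strong numbers were not always called active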
The depositor's hits bear a star; i = inactive; nt = no result given; & = joins results of further samples. Only part of the results is shown; count on the stated rates, not on these rows.

SMILES	Ba CapD inh	AID504770
CC(C)(C)NC(=O)c1ccccc1-c1nc(-c2ccccc2)no1	0.29	0.2
O=C(Nc1ccccc1C(=O)Nc1cccc(C(F)(F)F)c1)c1ccccc1	-0.17	nt
CC(=O)Oc1ccc2nc(-c3ccccc3)oc(=O)c2c1	0.15	1.7
CCOC(=O)CCSc1nc(C)cc(C(F)(F)F)c1C#N	nt	-0.45
COc1ccc2c(C)c(CC(=O)NCc3ccccc3)c(=O)oc2c1	105	0.2
O=C(Nc1ccccc1-c1nc2ccccc2[nH]1)c1cccs1	1	0.35
Cc1cc(C)c(CCOC(=O)NCc2ccc(Cl)cc2)c(C)c1	-0.22	nt
O=C(Nc1cccc(N=Cc2ccccc2O)c1)c1ccccc1O	-0.21	0.35
CC(=O)Nc1nc(CN2CCN(Cc3nc4ccccc4s3)CC2)cs1	nt	-0.05
Fc1ccc(N=c2scc(-c3ccc(C4CCCCC4)cc3)n2CCc2ccccc2)cc1	-0.46	nt
C=CCn1c(=O)c2ccccc2n2c(SC(C)c3nnc(-c4cccs4)o3)nnc12 (stereo not given)	nt	-0.05
O=C(N1CCc2ccc(S(=O)(=O)N3CCN(CCOCCO)CC3)cc2C1)C(F)(F)F	0.51	nt
CN1CCN(c2nc(-c3ccc(Cl)cc3)nc3ccccc23)CC1	0.21	nt
CC(=O)N1CCN(C(=O)/C(=C/c2ccc(F)cc2)c2ccsc2)CC1	-0.44	-1.4
Cc1ccc(Cn2nnc3c(=O)n(CC(N)=O)cnc32)cc1	8.9	1.8
O=C(O)c1csc2c1CCCCC2	14	-0.9
Cc1ccc(C)c(N2CCN(C(=O)C3CCN(c4ccc(N5CCOCC5)nn4)CC3)CC2)c1	0.45	-0.05
CC(N)c1ccc2c(c1)OCCO2 (stereo not given)	nt	0.85
CC(=O)Nc1ccc(C(=O)CSc2nnc(C)o2)cc1	-0.3	-0.1
CC(C)n1cc(-c2ccccc2NC(=O)C(C)(C)C)cn1	0.13	nt
COc1ccc(C2=NN(S(=O)(=O)c3ccc(C)cc3)C(c3ccc(OC)c(OC)c3)C2)cc1OC (stereo not given)	-0.17	nt
CC(C)(C)c1cc(O)c2oc(=O)c(-c3nc(-c4ccccc4F)no3)cc2c1	-0.1	1.1
CC1CCN(C(=O)c2ccc3c(c2)N(C)CCS3)CC1	31	-1.4
COc1ccccc1C1CC(c2ccc(Br)cc2)=NN1CN1C(=O)C(=O)c2ccccc21 (stereo not given)	-0.32	nt

Some of the entries above, reformatted.
| SMILES | Ba CapD inh | AID504770 |
| --- | --- | --- |
| O=C(O)c1csc2c1CCCCC2 | 14 | -0.9 |
| Cc1ccc(C)c(N2CCN(C(=O)C3CCN(c4ccc(N5CCOCC5)nn4)CC3)CC2)c1 | 0.45 | -0.05 |
| CC(N)c1ccc2c(c1)OCCO2 (stereo not given) | nt | 0.85 |
| CC(=O)Nc1ccc(C(=O)CSc2nnc(C)o2)cc1 | -0.3 | -0.1 |
| CC(C)n1cc(-c2ccccc2NC(=O)C(C)(C)C)cn1 | 0.13 | nt |

Following part:
SMILES	Ba CapD inh	AID504770
S=C(NCC1CCCO1)NC1CCCCC1 (stereo not given)	0.47	0.35
CSc1nnc2n(/N=C/c3cc4c(cc3Br)OCO4)cnn12	1.5	-1.1
Cc1cccc(C(=O)NC2=NCC(C)S2)c1 (stereo not given)	nt	1.5
CCOC(=O)c1nc(COc2ccccc2Cl)no1	-0.12	-0.2
CCCc1[nH]nc2c1C(C1CC=CCC1)C(C#N)=C(N)O2 (stereo not given)	-0.39	-0.85
CCC12CCCN3CCC4(c5ccc(OC)c(O)c5N(C(C)=O)C4CC1)C32 (stereo not given)	-0.4	-0.95
Cc1ccc2onc(CNC(=O)Nc3ccccc3C)c2c1	-0.15	-0.15
CCC(=O)OCC(=O)Nc1cccc2ccccc12	-0.06	1.7
COC(=O)CSc1nnc(CNS(=O)(=O)c2ccc(Cl)cc2)n1C	-0.055	nt
N#Cc1c(N2CCCCCC2)ncc2cc3ccccc3nc12	-0.39	-0.65
Cc1ccc2[nH]c(-c3ccccc3)c(CN3CCCC(C)C3)c(=O)c2c1 (stereo not given)	1.1	-0.2
ONC(=NCc1ccccc1)c1cccc(Cl)c1	0.23	-0.7
CC(NC(=O)OCc1ccccc1)C(=O)Oc1ccc2c(=O)c(-c3ccc(F)cc3)coc2c1 (stereo not given)	0.34	0.75
CN(CCCN1c2ccccc2CCc2ccccc21)C(=O)C1CC1C(=O)O (stereo not given)	0.01	nt
CCC(CC)C(=O)NCCc1ccc(OC)c(OC)c1	0.14	-0.5
O=C1C2=C(Nc3ccccc3SC2c2ccc(O)cc2)c2ccccc21 (stereo not given)	-0.34&-0.59	0.5&0.35
COc1cc(/C=C/C(=O)O)cc(Cl)c1O	nt	-0.95
C[n+]1ccc(/C=C\c2ccco2)c2ccccc21	0.01	0.75
O=C1NC(=O)N(c2ccc(Br)cc2)C(=O)/C1=C/c1ccc(N2CCOCC2)o1	-1.4	nt
Cc1ccc(C(C(=O)NC2CCCCC2)N(C)C)cc1 (stereo not given)	3.3	-0.3
CCc1ccc(NC(=O)c2cnc(Nc3ccc(OC)cc3)c3ccccc23)cc1	-0.29	nt
O=C(Nc1ccc(F)cc1OC(F)(F)F)N1CCC(O)CC1	0.49	-0.35
CC(=O)N1CCN(S(=O)(=O)c2cccc(C(=O)NCCc3ccccn3)c2)CC1	nt	0.6
COC(=O)c1sc2nc(-c3ccccc3)cc(-c3ccccc3)c2c1N	-0.23	-0.1

Quoted at random: 2 records from the list, in no set order.
SMILES	Ba CapD inh	AID504770
CC(NC(=O)OCc1ccccc1)C(=O)Oc1ccc2c(=O)c(-c3ccc(F)cc3)coc2c1 (stereo not given)	0.34	0.75
COC(=O)c1sc2nc(-c3ccccc3)cc(-c3ccccc3)c2c1N	-0.23	-0.1

Other records
SMILES	Ba CapD inh	AID504770
CCn1c(CCNC(=O)c2ccccc2)nc2ccccc21	0.52	0.45
Cc1cn2c(nc3c2c(=O)[nH]c(=O)n3C)[nH]1	0.32	nt
Cc1cnc2c(c1)C(=O)CCC2	0.29&0.11	nt
O=C(Nc1ccc(F)c(Cl)c1)c1ccccc1O	15	nt
C=CCOc1ccc(CN2CCN(C(=O)C(C)c3cccc(C(=O)c4ccccc4)c3)CC2)cc1 (stereo not given)	-0.91	nt
CCN(CC)Cc1nonc1C	nt	-0.2
COc1cc(/C=C/C(=O)O)cc(S(=O)(=O)N2CCc3ccccc32)c1OC	nt	-1
Cc1cc(C)cc(NC(=O)c2sc3nc(SCC(=O)C(C)(C)C)n(CCc4ccccc4)c(=O)c3c2C)c1	-0.12	nt
COc1ccc(-c2noc(CN(C(=O)NC3CCCCC3)C(C)C)n2)cc1OC	-1.3	1.1
CCN1C(=O)CSC1=Nc1ccccc1Cl	-0.53	-0.5
CCOC(=O)C1=C(C(=O)OCC)SC(=C2C(=S)C(C)(C)N(C(=O)CC(C)C)c3ccccc32)S1	0.42	nt
COC(=O)c1ccc(/C=N/OCC(=O)Nc2ccc3c(c2)OCCO3)cc1	nt	-1.4
CC(C)CCNc1cc(-c2ccccc2)nc2nncn12	4.5	-0.3
CCOC(=O)COc1cc2oc(=O)cc(-c3ccccc3)c2cc1Cl	0.23	2.5
O=C(CN1C(=O)C2C3c4ccccc4C(c4ccccc43)C2C1=O)Nc1cccc(C(F)(F)F)c1 (stereo not given)	-0.61	nt
COc1ccc(OC)c(S(=O)(=O)Nc2cnc3ccccc3c2)c1	1.6	0
N=c1c[n+](CC23CC4CC(CC(C4)C2)C3)[n-]o1	1.3	-1.5
CC(C)N(C(=O)CSc1nc2ccccc2[nH]1)c1ccccc1	-0.26	-0.3
CN(CC(=O)NC1CCCCC1)c1nnc(N2CCCC2=O)s1	0.015	0.3
N#Cc1cc2c(N)c(C(=O)N(c3ccccc3)c3ccccc3)sc2nc1N	-0.17	nt
Cc1nn(C)c(C)c1NS(=O)(=O)c1cc(Cl)sc1Cl	0.12	nt
CC(c1ccccc1F)n1cc(C(=O)NCCCn2ccnc2)nn1 (stereo not given)	nt	-0.5
O=c1[nH]c(Cc2ccccc2)nc2c1C1(CCCCC1)Cc1ccccc1-2	0.23	nt
c1csc(-c2csc3nc(CN4CCOCC4)nc(Sc4ncn[nH]4)c23)c1	nt	-0.4
Cc1c(Sc2nc3ccccc3s2)c(=O)[nH]c2cc3c(cc12)OCO3	18	1
Cc1nc(-n2cc(-c3ccccc3)nn2)nc2c1CCCC2	-0.31	0.8
C=CCN1c2ccccc2NC(=O)C1CC(=O)Nc1ccc(C)cc1 (stereo not given)	nt	-0.45
O=C1NC(=Nc2ccccc2)SC1Cc1cccc(C(F)(F)F)c1 (stereo not given)	i	0.35
S=c1[nH]nc(NC2CCCCC2)s1	-0.71	nt
NC(=O)CCN1CCN(S(=O)(=O)/C=C/c2ccccc2)CC1	nt	0.4
CC(C)Cn1nnc2c(=O)oc3ccccc3c21	0.73	0.2
N/C(CN1CCSCC1)=N\O	-0.23	2
CC1(C)CC(=O)C2=C(C1)OC1=C(C(=O)CC(C)(C)C1)C2c1ccc(Cl)cc1Cl	-0.33	nt
O=c1cc(C(F)(F)F)[nH]c2n[nH]c(-c3cccs3)c12	3.2	-0.3
Cc1ccccc1NC1C=CS(=O)(=O)C1 (stereo not given)	nt	0
Fc1ccc(-c2nnc3ccccn23)cc1	-0.14	nt

Copied from the listing, two compounds:
SMILES	Ba CapD inh	AID504770
C=CCN1c2ccccc2NC(=O)C1CC(=O)Nc1ccc(C)cc1 (stereo not given)	nt	-0.45
O=C1NC(=Nc2ccccc2)SC1Cc1cccc(C(F)(F)F)c1 (stereo not given)	i	0.35

(next part)
SMILES	Ba CapD inh	AID504770
OC(CNCc1ccc(Cl)cc1Cl)(c1ccccc1)c1ccccc1	-0.29	nt
CSc1nnc(Cn2c(=O)sc3ccccc32)n1C	-0.4	-0.75
COc1ccc(-c2cc3c(=O)n(CC(=O)NC4CCC(C)CC4)ncn3n2)cc1 (stereo not given)	3.9	0.85
CCCOc1ccc(C2Nc3ccccc3NC3=C2C(=O)CC(c2ccc(OC)c(OC)c2)C3)cc1OC (stereo not given)	-0.74	nt
Cc1cccc(N2CCN(C(=O)CS(=O)(=O)Cc3nc(-c4ccccc4F)oc3C)CC2C)c1 (stereo not given)	-0.14	-1.7
CCN(CC(=O)Nc1ccc(NC(C)=O)cc1)C(=O)Cc1ccccc1F	nt	-0.65
O=C(Cn1c(-c2ccccc2F)nc2ccccc2c1=O)N1CCN(c2ccc(F)cc2)CC1	0.34	nt
CCN(CC)CCc1c(O)n(-c2ccccc2)n(-c2ccccc2)c1=O	nt	0.05
O=C(c1ccc(Br)cc1)n1c(=O)oc2ccccc21	i	-0.6
N#CC1=C(SCC(=O)NC2CCCCC2)NC(=O)CC1c1ccccc1F (stereo not given)	-0.17	-1.2
Cc1cc(Br)ccc1NCc1ccc2c(c1)OCO2	-0.65	-0.75
COc1cccc(CNc2ncn[nH]2)c1	nt	0.2
O=C(CSc1ncnc2sc3c(c12)CCCC3)c1ccccc1	-0.53	3.7
CC(=O)NC1(c2ccccc2)CCNCC1	0.23	-1
OC(c1ccccc1)C1CCCCC1 (stereo not given)	0.52	nt
O=S(=O)(c1ccc(Cl)cc1)N1CCC(c2nc(-c3cnccn3)no2)CC1	-0.56	nt
NS(=O)(=O)c1ccc(-c2ccc(/C=C3\COc4ccccc4C3=O)o2)cc1	nt	-1.4
COC(=O)c1cccc(NC(=O)CC(C)C)c1	-0.86	-0.05
O=S(=O)(Nc1ccc2c(c1)OCCO2)c1ccc(-c2ccccn2)s1	-0.76	-0.5
CCCCC(=O)Nc1cccc(-c2cn3ccsc3n2)c1	0.15	0.05
COc1cc(OC)cc(C(=O)Nc2cccc(-c3nn4c(C)nnc4s3)c2)c1	-0.27	-0.6
O=C(O)CCSc1sc(=S)sc1SCCC(=O)O	-0.84	nt
CC(C)n1nnc(CC(N)=O)n1	0.37	1.2
CC(c1ccccc1)C1C(C#N)=C(N)OC2=C1C(=O)CC(C)(C)C2 (stereo not given)	-0.3	-0.7
CCOc1cc(C2Nc3cccc4cccc(c34)N2)ccc1O	33	nt
COc1cc(-c2nc3ccccn3c2N)ccc1O	6.6	nt
N#Cc1ccc(Sc2ccccc2)nc1	-0.085	0.8
COc1ccc(C(=O)C(C)OC(=O)c2cc(C)nc3ccccc23)cc1 (stereo not given)	0.41	0.55
Oc1ccc(NC(=S)Nc2ccc(O)cc2)cc1	nt	-0.1
CC(C)NC(=S)N/N=C/c1ccn[nH]1	-0.015	-1.2
Cc1ccc(NC(=O)c2ccccc2C)cc1	0.51	-0.15
O=C(CSc1ccccn1)Nc1c(F)cccc1F	0.26	nt
O=C1c2ccccc2C(=O)N1CCOc1ncnc2c(Cl)cc(Cl)cc12	nt	0.45
CCOC(=O)N1CC(=O)Nc2ccc(Br)cc2C1c1ccccc1Cl (stereo not given)	0.03	nt
COc1ccc(NC(=O)CSc2nc3ccccc3c(=O)n2CCNC(C)=O)c(OC)c1	-0.57	-1.1
CCCc1[nH]nc2c1C(c1cc(OCC)c(OC(=O)N3CCOCC3)c([N+](=O)[O-])c1)C(C#N)=C(N)O2 (stereo not given)	-0.56	nt
O=C(Cn1ncc2c(=O)oc3ccccc3c21)Nc1cccc(Cl)c1	0.44	-2.2
COc1ccc(CCNS(=O)(=O)c2cccc(C)c2)cc1	-0.26	nt
COc1ccc(N2CCN(C(=O)c3cccc(N4C(=O)C5CC=CCC5C4=O)c3)CC2)cc1 (stereo not given)	0.1	nt
Cc1csc2nc(COC(=O)c3ccc4c(c3)NC(=O)C3CCCN43)cc(=O)n12 (stereo not given)	nt	-0.55
Cc1cc(NC(=O)C2CC(c3ccc(Cl)cc3)=NO2)no1 (stereo not given)	0.55	-0.9

Exported with two lines to a compound: entries from further up
Each structure is followed by: Ba CapD inh, AID504770
> O=C(Cn1ncc2c(=O)oc3ccccc3c21)Nc1cccc(Cl)c1
 : 0.44, -2.2
> COc1ccc(CCNS(=O)(=O)c2cccc(C)c2)cc1
 : -0.26, nt
